# Measles inh – inhibitors of measles virus growth in cells, primary screen, measles RdRp inhibitor project, cell-based, single point, HTS. infected Vero cells, GFP fluorescence, 64 h; hits give low values. z-score (no concentration beside the values). 33,000 compounds, 0.1% hits;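 active means z-score under -3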;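 further: score is relative to mean and SD of the compound wells of a plate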
# Numbers without * were called inactive. An excerpt. The share of hits here may be higher or lower than overall.
SMILES | Measles inh
COc1ccc(C2CC(C(F)(F)F)n3ncc(C(=O)NC(C)C)c3N2)cc1OC (configuration not stated) | 0.57
CC(=O)N1N=C(c2ccncc2)OC1c1ccc(C(C)C)cc1 (configuration not stated) | -0.87
O=C1C2CCCCC2C(=O)N1c1ccc(NCCc2cccc(F)c2)c([N+](=O)[O-])c1 (configuration not stated) | 1.2
Cc1csc(NC(=O)CSc2nc(-c3cccs3)cc(-c3cccs3)c2C#N)n1 | -0.13
CCN(Cc1ccccc1)S(=O)(=O)c1cc(Br)cc2c1N(C(=O)C1CC1)CC2 | -0.39
COc1ccccc1C1Nc2ccccc2NC2=C1C(=O)CC(c1ccc(C)cc1)C2 (configuration not stated) | -0.2
CC(=O)N1c2c(cc(Br)cc2S(=O)(=O)N2CCN(c3cccc(C(F)(F)F)c3)CC2)CC1C (configuration not stated) | -0.51
COc1ccc(C2C3C(=O)N(c4ccc(C)cc4)C(=O)C3ON2c2ccccc2)c(OC)c1 (configuration not stated) | -0.56
O=C(Nc1cccc2ccccc12)c1cnn2c1NC(c1ccccc1)CC2C(F)(F)F (configuration not stated) | -0.03
Cc1ccc2cc3cc(C(=O)NCCN4CCOCC4)sc3nc2c1 | -2
CCOC(=O)CSc1nnc(-c2ccc(OC)cc2)o1 | 0.09
COc1ccc(-c2nc3sccn3c2Nc2ccc3c(c2)OCO3)cc1 | -0.95
CC(=O)NC(NCCOC12CC3CC(CC(C3)C1)C2)(C(F)(F)F)C(F)(F)F | -0.21
CC(C)COC(=O)c1cccc(NC(=O)Cc2ccccc2)c1 | 1.2
COC(=O)c1ccc2c(=O)n(Cc3cccs3)c(=S)[nH]c2c1 | -0.27
Cc1cc2c(=O)n(CC(=O)NCC(=O)NCCN3CCOCC3)cnc2s1 | -0.12
O=C(Nc1ccccc1-c1nc2ccccc2o1)c1ccc2c(c1)OCCO2 | -0.61
COc1ccc(Nc2c3c4c(c(Br)ccc4n(C)c2=O)C(=O)c2ccccc2-3)cc1 | 0.49
O=C(Nc1cccc(O)c1)c1ccc(CSc2ccc(Br)cc2)cc1 | -0.94
O=c1[nH]nc(-c2ccc(Nc3ccccc3)c([N+](=O)[O-])c2)c2ccccc12 | -1.6
COc1ccc(C(=O)c2ccc(N3CCN(C(=O)c4ccccc4F)CC3)c(F)c2)cc1Br | -0.18
CCCn1c(=N)n(CC(=O)c2ccco2)c2ccccc21 | -0.47
COc1ccc(NC2=CC(=O)CC(c3ccc(C)cc3)C2)c(OC)c1 (configuration not stated) | -1.7
COc1ccc(NC(=O)C2c3ccccc3C(=O)N3CCc4cc(OC)c(OC)cc4C23)cc1Cl (configuration not stated) | -0.35
CCOC(=O)c1c(N)n(C2CCCCC2)c2nc3ccccc3nc12 | -0.57

# A draw from above in order of length of the SMILES, lowest first:
SMILES | Measles inh
CCOC(=O)CSc1nnc(-c2ccc(OC)cc2)o1 | 0.09
CCCn1c(=N)n(CC(=O)c2ccco2)c2ccccc21 | -0.47
Cc1ccc2cc3cc(C(=O)NCCN4CCOCC4)sc3nc2c1 | -2
CCOC(=O)c1c(N)n(C2CCCCC2)c2nc3ccccc3nc12 | -0.57
COc1ccc(-c2nc3sccn3c2Nc2ccc3c(c2)OCO3)cc1 | -0.95
COc1ccc(NC2=CC(=O)CC(c3ccc(C)cc3)C2)c(OC)c1 (configuration not stated) | -1.7
Cc1cc2c(=O)n(CC(=O)NCC(=O)NCCN3CCOCC3)cnc2s1 | -0.12
COc1ccccc1C1Nc2ccccc2NC2=C1C(=O)CC(c1ccc(C)cc1)C2 (configuration not stated) | -0.2
COc1ccc(C2CC(C(F)(F)F)n3ncc(C(=O)NC(C)C)c3N2)cc1OC (configuration not stated) | 0.57
O=C(Nc1cccc2ccccc12)c1cnn2c1NC(c1ccccc1)CC2C(F)(F)F (configuration not stated) | -0.03
CCN(Cc1ccccc1)S(=O)(=O)c1cc(Br)cc2c1N(C(=O)C1CC1)CC2 | -0.39
COc1ccc(Nc2c3c4c(c(Br)ccc4n(C)c2=O)C(=O)c2ccccc2-3)cc1 | 0.49
O=c1[nH]nc(-c2ccc(Nc3ccccc3)c([N+](=O)[O-])c2)c2ccccc12 | -1.6
COc1ccc(C(=O)c2ccc(N3CCN(C(=O)c4ccccc4F)CC3)c(F)c2)cc1Br | -0.18

# (next part)
SMILES | Measles inh
COc1ccc(Oc2c(C(F)(F)F)oc3cc(OC(=O)c4cccs4)ccc3c2=O)cc1 | -0.12
COc1cccc(-n2sc3c(c2=S)-c2cc(C)ccc2NC3(C)C)c1 | -0.25
CCOc1ccccc1-n1c(SCC(=O)c2cccc([N+](=O)[O-])c2)nnc1-c1cccnc1 | -0.34
Cc1ccc(CNC(=O)c2cn(C3CCCCC3)c(=O)c3c2c2ccccc2n3C)o1 | 0.33
CC1=C(C(=O)OCC2CCCCC2)C(c2cccc(Cl)c2)NC(=O)N1 (configuration not stated) | -1.5
NC(=O)C1CCN(C(=O)CCCn2c(=O)[nH]c3ccc(Br)cc3c2=O)CC1 | -2.1
NC(=O)c1cc2cc(Br)ccc2oc1=Nc1ccc(Br)cc1 | 0
CCCCOC(=O)c1ccc(N=Cc2c(O)ccc3ccccc23)cc1 | -0.09
CCc1ccc(NS(=O)(=O)c2ccc3c(c2)CCN3C(=O)C2CC2)cc1 | -2
O=C(Nc1nc(-c2ccc(Cl)cc2)cs1)c1c(O)c2cccc3c2n(c1=O)CCC3 | 1.2
C=CCn1c(SCC(=O)NCCN2CCOCC2)nc2sc3c(c2c1=O)CCC3 | 0.19
O=C(COc1cccc(C(F)(F)F)c1)Nc1ncc(Cc2cccc(C(F)(F)F)c2)s1 | 1.2
COC(=O)C1=C(C)Nc2nc(SCc3ccccc3)[nH]c(=O)c2C1c1cccc(F)c1 (configuration not stated) | 1.9
CC(=O)C1=C(O)C(=O)N(Cc2ccco2)C1c1ccccc1 (configuration not stated) | -0.36
Cc1ccc(NC(=O)c2cc3cc([N+](=O)[O-])ccc3oc2=O)c(C)c1 | 0.63
NC(=O)c1cc(-c2ccc(Br)cc2)no1 | 1.9
Nc1nnc(SCC(=O)Nc2cc(C(F)(F)F)cc(C(F)(F)F)c2)s1 | -0.35
O=C(CCSCc1ccccc1Cl)N1CCN(c2cccc(C(F)(F)F)c2)CC1 | -1.2
CCOC(=O)c1c(NC(=O)c2cccc(C)c2)sc2c1CCCC2 | 0.03
CCN(CC)CCNC(=O)c1nn(-c2ccc(C)cc2)c(=O)c2c1c1ccccc1n2C | -0.36
COCCCNC(=O)CN1C(=O)COc2ccccc21 | 1.6
COc1ccc(C2=NN(c3ccc([N+](=O)[O-])cc3)C(c3ccc(F)cc3)C2)cc1 (configuration not stated) | 0.79
CC(=O)N(C(C)=O)c1ccccc1-c1ccccc1 | 1.1
COc1cccc(C2C(C(=O)Nc3ccc(F)cc3)=C(C)NC3=C2C(=O)CC(c2ccccc2)C3)c1OC (configuration not stated) | -0.76
Cc1ccccc1NC(=O)c1cc2c(CO)cnc(C)c2oc1=Nc1ccc(Cl)cc1 | -0.12
O=C(CSc1cn(Cc2ccc(F)cc2)c2ccccc12)Nc1ccccc1C(F)(F)F | 2
CC1=C(C(=O)OCCOc2ccccc2)C(c2ccc(N(C)C)cc2)C2=C(CC(C)(C)CC2=O)N1 (configuration not stated) | 0.98
CC(C)COC(=O)C1C2C=CC3(CN(C4CCCCC4)C(=O)C13)O2 (configuration not stated) | 0.95
CCOc1cc(-c2nc3ccccn3c2N=Cc2cc([N+](=O)[O-])ccc2Cl)ccc1O | -0.46
CC(=O)OCCn1ccc(=O)[nH]c1=O | 0.05
COc1ccc(-c2cc(C)[s+]c(-c3ccccc3)c2)cc1 | 0.22
CCS(=O)(=O)c1ccc(O)c(NC(=O)COc2ccc(OC)cc2)c1 | 0.75
COc1ccc(OC)c(NC(=O)c2sc3ncn(CC(=O)N4CCCCC4)c(=O)c3c2C)c1 | 0.96
COC(=O)C1=CN(C(C)C)C=C(C(=O)OC)C1c1cccc(Cl)c1 | -1.8
Cc1nn(C(C)(C)C)c(OC(=O)c2ccccc2F)c1S(=O)(=O)c1ccccc1 | -0.27
CCCCN(C)c1nc(CC)c2c(c1C#N)CC(C)(C)OC2 | 0.87
CC1CCC(c2ccc(O)cc2)(c2ccc(O)cc2)CC1 | -0.32
CCC(C)NC(=O)Cn1cnc2sc(C)c(S(=O)(=O)N3CC(C)CC(C)C3)c2c1=O (configuration not stated) | -0.77
O=C(O)C1CSC(c2ccncc2)=N1 (configuration not stated) | -1.1
CCc1nc2ccccc2n1CC(O)COc1c(C)cc(C)cc1C (configuration not stated) | 0.63
CC(=O)Oc1cc(OC(C)=O)c2c(=O)c(-c3ccc4c(c3)OCCO4)c(C)oc2c1 | -0.8
O=C(O)c1ccc(NC2=C(N3CCOCC3)C(=O)c3ccccc3C2=O)cc1 | 0.12
CCOC(=O)c1sc(N)c(C(=O)Nc2ccc(C)c(C)c2)c1C | -0.31
COc1ccc(S(=O)(=O)Nc2ccc(OC)cc2OC)cc1 | 1.7
Nc1c(C(=O)Nc2ccc([N+](=O)[O-])cc2)sc2nc3c(c(-c4ccc(Cl)cc4)c12)CCC3 | 0.32
CCc1ccc(N2C(C(C)=O)=NN(c3ccccc3)C2c2c[nH]c3ccccc23)cc1 (configuration not stated) | -2.2
CC(C)CCNCC(O)Cn1c2ccc(Cl)cc2c2cc(Cl)ccc21 (configuration not stated) | -1.3
COc1ccc(-n2nnnc2SCCC#N)cc1 | 0.24
COc1ccc(-c2nc3n(c2C)Cc2ccccc2-3)cc1 | -0.91
O=C1C(=O)N(CCc2ccc(O)cc2)C(c2ccc(Cl)cc2)/C1=C(\O)c1ccccc1 (configuration not stated) | -0.69

# More records
SMILES | Measles inh
CN1CCN(Cc2c(NC(=O)c3ccccc3)sc3c2CCCC3)CC1 | 0.11
O=C(CCC(=O)Nc1nc(-c2cc3ccccc3oc2=O)cs1)NCc1ccccc1 | -0.35
CCN(CC)CCCC(C)Nc1ccnc2ccc(-c3ccccc3)cc12 (configuration not stated) | -0.1
O=C(NC1CCCCC1)C(Cc1ccccc1)NS(=O)(=O)c1cccs1 (configuration not stated) | 0.52
Cc1cc2c(cc1C)NC(CC(=O)Nc1ccccc1C)C(=O)N2 (configuration not stated) | 0.78
CCOC(=O)C(CC)Sc1nc2c(c(=O)[nH]c(=O)n2C)n1C(C)C (configuration not stated) | -0.03
CCOC(=O)C1C(c2ccccc2)NC(=O)NC1(O)C(F)(F)F (configuration not stated) | -1.2
CC(C)Oc1ccc(C=NCCC2(c3ccccc3)CCOC(C)(C)C2)cc1 (configuration not stated) | 0.53
CC1CCCN(S(=O)(=O)c2ccc3[nH]c(=O)cc(C(=O)NCC4COc5ccccc5O4)c3c2)C1 (configuration not stated) | -0.24
COc1ccc(C2C(C(=O)N3CCC(C)CC3)CCC(=O)N2c2cc(OC)c(OC)c(OC)c2)cc1 (configuration not stated) | 0.89
Cc1cccc(CSC2=NCCN2C(=O)c2cccc(Br)c2)c1 | 0.48
COc1ccccc1NC(=O)CSC(N)=O | 0.08
CC1CCCCN1S(=O)(=O)c1ccc(C(=O)Nc2nc(-c3ccncc3)cs2)cc1 (configuration not stated) | -0.14
Cc1nc2nc(SCC(=O)Nc3ccc(C(C)C)cc3)nn2c(C)c1Cc1ccccc1 | -0.24
COc1cc(CN2CC(=O)N(c3cccc(Cl)c3C)C2=S)cc(OC)c1OC | 0.86
CC(=O)N1CCc2cc(S(=O)(=O)CCC(=O)Nc3ccc(C(F)(F)F)cc3)ccc21 | -0.69
COc1ccc(COC(=O)C2=C(C)NC3=C(C(=O)CC(c4cccs4)C3)C2c2cccc([N+](=O)[O-])c2)cc1 (configuration not stated) | -0.41
O=[N+]([O-])c1ccc(NCCNS(=O)(=O)c2ccccc2)cc1 | 0.41
O=C(CSc1nnnn1-c1ccccc1)Nc1cccc(C(F)(F)F)c1 | 0.09
O=[N+]([O-])c1ccc(S(=O)(=O)Nc2nc3ccccc3s2)cc1 | -1.3
CC(=O)Nc1ccc(N2C(=O)CC(NCc3ccc(F)cc3)C2=O)cc1 (configuration not stated) | 1.5
O=C(CCNS(=O)(=O)c1cccs1)NCc1ccccc1Cl | -0.37
CCCC(=O)Oc1cc2c(C(=O)OCC)c(C)n(C)c2c2ccccc12 | -0.5
O=C(Nc1sc2c(c1C(=O)N1CCCC1)CCC2)c1ccccc1F | 0.35
O=C(NCCc1ccc(Cl)cc1)c1ccc2c(=O)n(Cc3ccccc3)c(=S)[nH]c2c1 | 3
COc1ccc(OCc2nnc(NC(=O)Nc3ccc(F)cc3)s2)cc1 | -0.72
COc1cc(C2C3=C(CCCC3=O)NC3=C2C(=O)CCC3)cc(Cl)c1O | 0.95
Cc1cc2cc(CCNC(=O)c3ccc(C(F)(F)F)cc3)c(=O)[nH]c2cc1C | -0.14
CCC1Oc2ccccc2N(CC(=O)NCc2cccs2)C1=O (configuration not stated) | 0.62
CCOc1ccc(C2C(C(=O)Nc3ccc(C)cn3)=C(C)NC3=C2C(=O)CCC3)cc1 (configuration not stated) | 0.14
CCN=C1SC(CC(=O)Nc2ccc(F)cc2)C(=O)N1CC (configuration not stated) | 1.4
CC(=O)N1N=C(c2ccc(Cl)cc2)OC12CCCCC2 | -1.4
Cc1cc(OC(=O)c2ccccc2)cc2c(=O)c3ccccc3sc12 | 0.15
Cc1ccc2c(c1)c1nc3ccccc3nc1n2C(C)C | -0.21
CC(=O)N1CCCc2cc(S(=O)(=O)Nc3ccc(Cl)cc3)ccc21 | 0.44
NC(=O)c1c(NC(=O)C2c3ccccc3Oc3ccccc32)sc2c1CCC2 | -0.12
CCN(C(=O)c1cccc(F)c1)c1ccc(C(O)(C(=O)OC)C(F)(F)F)cc1 (configuration not stated) | 0.15
O=S(=O)(NCC1CC2C=CC1C2)c1ccc(F)cc1 (configuration not stated) | 0.46
Cc1ccc2nc(N3CCC(C(=O)NC4CCCC(C)C4C)CC3)[nH]c2c1 (configuration not stated) | -0.26
COc1cc(C=Nc2ccccc2O)c([N+](=O)[O-])cc1OC | -0.4
Cc1ccc(CNC(=O)c2ccc(Cn3c(=S)[nH]c4ccc(Br)cc4c3=O)cc2)cc1 | -0.46
